Sa helicase inh: S. aureus DNA helicase inhibition. purified S. aureus helicase, fluorescence unwinding assay; about half of the hits fall short of the stated cut. inhibition, %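 (tested at about 80 µM)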. 0.05% of 120,000 active. AID 485395;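 active = both duplicates at 50% or more, or one of them with a favoured structure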;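 also: 0% = mean of negative control wells and 100% = mean of positive control wells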
MgrA-DNA mod: modulators of Staphylococcus aureus MgrA DNA binding. AID 602314. 0.13% of 84,000 active. fluorescence polarization. inhibition, %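 (about 10 µg/mL by stock and volumes)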;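 active = above 50% in either of two replicates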;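 also: 0% = protein plus DNA without compound and 100% = DNA alone without protein; higher means less MgrA bound to DNA so lower polarization; one replicate is shown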
* = called active by the depositor; · = not tested or not shown; & = joins results of further samples.

Sa helicase inh	MgrA-DNA mod	Compound
-2.0	4.5	O=C(COc1ccccc1)N1CCNCC1
7.0	0.4	CCOc1ccc(C(=O)N(C)CC2COc3ccccc3O2)cc1 (stereo not drawn)
7.0	·	COc1cccc(C(=O)Nc2nc3cc4c(cc3s2)OCO4)c1
-10.0	3.4	O=C(Nc1ccc2c(c1)OCO2)Nc1ccc(N2CCOCC2)c2nonc12
5.0	·	CC(c1ccccc1)n1c(=O)[nH]c2ccccc21 (stereo not drawn)
-12.0	·	COc1ccc(/C=C(\C#N)c2cccs2)cc1
1.0	-7.0	CSc1ncc(Cl)c(C(=O)Nc2cccc3ccccc23)n1
12.0	·	Nn1c(SCc2ccccc2)nnc1C(F)(F)F
·	0.6	CSc1n[nH]c(-c2ccc(C(C)(C)C)cc2)n1
-118.0	·	O=S1(=O)N=CNc2ccc(S(=O)(=O)N3CCc4ccccc43)cc21

Next part
Sa helicase inh	MgrA-DNA mod	Compound
17.0	·	CCN1CCN(C(=O)C(NC(=O)C2CCC(C)CC2)C(C)C)CC1 (stereo not drawn)
-8.0	·	Cc1cc(Nc2ccc3ccccc3n2)n(-c2ccccc2)n1
12.0	·	C#CCN=Cc1ccc(OCCC)cc1O
·	-2.7	FC(F)(F)c1cnc(NCCNc2cnc3ccccc3n2)c(Cl)c1
·	-0.7	Fc1cccc(Cl)c1CSc1ccccc1C1=NCCCN1
8.0	·	Cc1ccccc1NC(=O)CSC1=C(C#N)C(c2ccco2)C2=C(CC(C)(C)CC2=O)N1 (stereo not drawn)
·	6.4	COc1cccc(NC(=S)NC(Cc2ccccc2)c2ccccc2)c1 (stereo not drawn)
-24.0	·	COCCN1CN(Cc2ccccc2)c2nc3ccccc3n2C1
·	-0.7	O=C(O)C1Cc2c([nH]c3ccccc23)C(c2cccc(O)c2)N1 (stereo not drawn)
-26.0	·	Cc1ccc(S(=O)(=O)Nc2c(C)[nH]c(=O)[nH]c2=O)cc1

More results.
Sa helicase inh	MgrA-DNA mod	Compound
14.0	1.9	CCOC(=O)c1sc(=S)n(-c2ccc(OC)c(Cl)c2)c1N
-7.0	1.2	CC(C)(C)c1csc(NC(=O)C(CC(=O)O)NCc2ccco2)n1 (stereo not drawn)
0.0	·	O=C(Cn1[nH]c(=O)c2ccccc2c1=O)N1CCN(C/C=C/c2ccccc2)CC1
-15.0	·	Cc1nn(-c2ccccc2)c2c1N(C(=O)CCC(=O)Nc1ccccc1Cl)CCS2
5.0	-0.5	C=CCN=Cc1c(NCC=C)nc2ccccn2c1=O
-10.0	0.1	Cc1cc(C(=O)O)cs1
5.0	·	CC(On1nnc2ccc(C(F)(F)F)cc21)C(=O)Nc1ccc(C#N)cc1 (stereo not drawn)
11.0	0.3	CC1(C)CC(=O)C(C=NCCCN2CCCC2=O)=C(O)C1
6.0	-2.8	COCC(=O)N(CC1CCCO1)c1nnc(C)s1 (stereo not drawn)
-4.0	·	CCc1ccccc1NC(=O)CNC(=O)c1n[nH]c(=O)c2ccccc12

Later entries:
Sa helicase inh	MgrA-DNA mod	Compound
·	0.9	CC1CCc2c(sc(NC(=O)CN(Cc3ccccc3)Cc3ccccc3)c2C#N)C1 (stereo not drawn)
·	0.6	CC1(C)CC2(CCO1)OC(=O)CC2C#N (stereo not drawn)
8.0	-1.7	COc1cccc(C=Nc2cccc(C(=O)O)c2C)c1O
-6.0	·	COCCn1cnc2c1c(=O)n(CC(O)c1ccccc1)c(=O)n2CC(C)C (stereo not drawn)
·	-1.5	CCCC[C@@H](C=O)NC(=O)[C@H](CC(C)C)NC(=O)[C@H](CC(C)C)NC(C)=O
6.0	·	Cc1occc1-c1nnc(SCC(=O)N(CCc2ccccc2)Cc2ccccc2)n1N
·	3.0	O=C(N/N=C/c1cccc2ccccc12)N/N=C/c1cccc2ccccc12
16.0	·	COC(=O)c1cccc(NC(=O)c2ccccc2)c1
9.0	-2.3	CCC(OC(=O)c1cc2sccc2n1C(C)C)C(=O)NCc1ccc(OC)cc1 (stereo not drawn)
-18.0	·	O=C1/C(=C/c2cccs2)SC(=S)N1c1cc(Cl)cc(Cl)c1

2 of the compounds above, with bars between the fields:
SMILES | Sa helicase inh | MgrA-DNA mod
COC(=O)c1cccc(NC(=O)c2ccccc2)c1 | 16.0 | ·
CCC(OC(=O)c1cc2sccc2n1C(C)C)C(=O)NCc1ccc(OC)cc1 (stereo not drawn) | 9.0 | -2.3

(next part)
Sa helicase inh	MgrA-DNA mod	Compound
·	-0.3	COc1ccc(Br)cc1COC(=O)C1c2ccccc2Oc2ccccc21
-12.0	·	Cc1[nH]n(C)c(=O)c1N=Nc1c(Cl)cc(C(F)(F)F)cc1Cl
12.0	1.4	N#CSCCCOc1ccc2ccccc2c1
-8.0	·	CCCCn1c(N)c(N2CCOCC2)c(=O)n(CC(=O)N2C(C)CCCC2C)c1=O (stereo not drawn)
6.0	-0.2&8.1	O=c1[nH]cnc2ccc(Br)cc12
2.0	-5.3	CC(C)CCNC(=O)c1cc2sccc2n1Cc1ccc(F)cc1
-32.0	·	Cc1ccc(C)c(OC2=NS(=O)(=O)c3ccccc32)c1
11.0	1.0	COc1ccccc1NC(=O)Cn1c(CN2CCCCC2)nc2ccccc2c1=O
-1.0	4.1	NNC(=O)CNC(=O)c1ccc2c(c1)OCO2
3.0	-0.8	Cc1ccc(C(=O)c2coc3ccc(O)cc23)o1

Continued:
Sa helicase inh	MgrA-DNA mod	Compound
12.0	4.1	Cc1cc(=O)oc(C)c1C(=O)NC1CCCc2ccccc21 (stereo not drawn)
7.0	-0.8	NS(=O)(=O)c1ccc(CCNCc2ccc3c(c2)OCO3)cc1
4.0	0.6	O=C(NCc1ccccc1)N1CCSc2ccccc21
5.0	·	O=c1oc(-c2cccs2)nc2sc3c(c12)CCCC3
-25.0	·	CCCSc1nsc(NC(=O)CN2C(=O)COc3ccccc32)n1
10.0	1.1	CC(C)CCNS(=O)(=O)c1ccc(-c2ccc(S(=O)(=O)NCCC(C)C)cc2)cc1
10.0	·	Cc1c(NC(=O)NCc2cccnc2)sc2nc3n(c(=O)c12)CCC(C)CC3 (stereo not drawn)
-14.0	19.7	O=C1N/C(=N/S(=O)(=O)c2ccccc2)S/C1=C/c1ccccc1O
15.0	-0.9	Cc1ccc(NC(=O)c2cc(C(C)C)[nH]n2)cc1
4.0	2.0	COc1ccc(-c2cc(C(F)(F)F)nc(N3CCCCCC3)n2)cc1

Further compounds
Sa helicase inh	MgrA-DNA mod	Compound
11.0	1.9	c1ccc(CCNc2nc3ccccc3[nH]2)cc1
12.0	-0.9	CC(=O)OCCCn1c(C)nc2cc(Cl)ccc21
-8.0	-0.3	O=C(COC(=O)C1CC2C=CC1C2)Nc1ccccc1 (stereo not drawn)
·	-0.3	O=C(NCc1cc(C(F)(F)F)cc(C(F)(F)F)c1)c1ccc(F)cc1F
12.0	3.5	CCN(CC)C(=O)C1(P(=O)(c2ccccc2)c2ccccc2)CC1
6.0	·	CCCCN(C(=S)Nc1ccc(C)cc1)C1CCN(C(C)=O)CC1
18.0	4.6	Cc1cc(C)n(-c2cc(C(=O)O)ccc2C)n1
7.0	·	CCSc1nn2cc(-c3ccccc3Cl)nc2s1
11.0	·	CCc1ccc(NC(=O)CNS(=O)(=O)c2cccc3nonc23)cc1
·	-0.4	CC(C)c1ccc(NC(=O)CSc2ncc3c(n2)CC(C)(C)CC3=O)cc1

Remaining list, next part
Sa helicase inh	MgrA-DNA mod	Compound
7.0	0.4	OCC(O)/C=N/Nc1nc(Nc2ccccc2)nc(N2CCCCC2)n1 (stereo not drawn)
·	-1.2	COc1ccc(-c2nnc(NC(=O)c3ccc(C(=O)c4ccccc4)cc3)s2)c(OC)c1
17.0	·	O=C(CSc1nc2ccccc2[nH]1)N/N=C/c1ccccc1O
·	0.4	CC1(C)c2ccccc2N2CC(=O)NC21/C=C/c1ccc(F)cc1 (stereo not drawn)
5.0	·	Cc1nn(C2CCS(=O)(=O)C2)c2ncc(C(=O)c3cc(F)ccc3O)cc12 (stereo not drawn)
16.0	·	CCN(CC)S(=O)(=O)c1ccc2c(c1)C(=O)c1cc(S(=O)(=O)N(CC)CC)ccc1-2
3.0	-0.9	COc1ccccc1-n1cnc2cc(C(=O)NC3CCCC3)ccc21
·	-4.0	NCCSC(=S)NC1CCCCCCC1
2.0	-2.8	CC(C)c1nc2nc(N)nc(N)c2nc1C(C)C
16.0	·	S=c1[nH]nc(-c2ccncc2)o1

The final seven entries of the part above are carried over, then new ones follow:
Sa helicase inh	MgrA-DNA mod	Compound
·	0.4	CC1(C)c2ccccc2N2CC(=O)NC21/C=C/c1ccc(F)cc1 (stereo not drawn)
5.0	·	Cc1nn(C2CCS(=O)(=O)C2)c2ncc(C(=O)c3cc(F)ccc3O)cc12 (stereo not drawn)
16.0	·	CCN(CC)S(=O)(=O)c1ccc2c(c1)C(=O)c1cc(S(=O)(=O)N(CC)CC)ccc1-2
3.0	-0.9	COc1ccccc1-n1cnc2cc(C(=O)NC3CCCC3)ccc21
·	-4.0	NCCSC(=S)NC1CCCCCCC1
2.0	-2.8	CC(C)c1nc2nc(N)nc(N)c2nc1C(C)C
16.0	·	S=c1[nH]nc(-c2ccncc2)o1
9.0	3.2	Cc1cc(=O)oc2cc(OCC3CC(c4ccccc4)=NO3)ccc12 (stereo not drawn)
14.0	·	CCCc1cc(=O)[nH]c(SCCSC)n1
-4.0	·	CCN(CC(=O)NC1CCS(=O)(=O)C1)S(=O)(=O)c1ccccc1 (stereo not drawn)
·	-4.0	CS(=O)(=O)/C(C#N)=C/c1cccn1-c1ccc(C(F)(F)F)cc1
-14.0	·	CCOc1ccc(CN(C)C(=O)c2ccc3ccccc3n2)cc1
11.0	2.6	CCn1c(C=Nc2ccccc2)nc2ccccc21
5.0	-0.6	COCCCNc1oc(-c2ccccc2Cl)nc1C#N
·	-1.1	O=[N+]([O-])c1cc(Cc2cc([N+](=O)[O-])cc(C(F)(F)F)c2)cc(C(F)(F)F)c1
3.0	1.4	C=C(C)COc1c(Cl)cc(C#N)cc1OC
-1.0	·	Cc1cccc(-n2c(C)cc(CNC(=O)NC(C)C)c2C)c1

Next part:
Sa helicase inh	MgrA-DNA mod	Compound
·	2.8	NCC(O)c1ccc2ccccc2c1 (stereo not drawn)
2.0	-1.9	C=CCC1(O)CC(c2ccccc2)NC(c2ccccc2)C1CC (stereo not drawn)
·	-0.5	O=[N+]([O-])c1ccc(Cl)c(N=Cc2nc(-c3ccccc3Br)oc2O)c1
-11.0	0.9	O=C(COC(=O)c1ccc(F)cc1)NCc1ccc(F)cc1
-18.0	0.5	Clc1ccc(CSC2=NCCCN2)cc1Cl
4.0	·	COc1ccc(/C=N/n2cnnc2SC)cc1OC
-5.0	-2.2	O=C(O)COc1cccc(C(F)(F)F)c1
-4.0	0.8	CC1CCCC(C)N1C(=O)COC(=O)c1ccc2ccccc2n1 (stereo not drawn)
-7.0	·	O=c1oc2ccc(Br)cc2cc1-c1cn2ccccc2n1
-6.0	·	Cc1nnc(SC(C)C(=O)C23CC4CC(CC(C4)C2)C3)n1C (stereo not drawn)

(further entries)
Sa helicase inh	MgrA-DNA mod	Compound
-10.0	·	CN(C(=O)c1cc2ccc3cccnc3c2[nH]1)c1ccccc1
0.0	1.0	Cc1cccc(-n2ncc3c(N(C)Cc4ccccc4)ncnc32)c1
·	0.7	Cc1ccc(S(=O)(=O)NC(=O)OCC2CN(Cc3ccccc3)CCO2)cc1 (stereo not drawn)
2.0	·	Cc1cc(C)c2c(n1)SCC(=O)N2CCCC(=O)NC(C)C
0.0	-2.0	O=C(/C(=N\O)n1cncn1)c1ccccc1Cl
·	4.0	CSc1ccc(CNC(=O)c2c(C)noc2C)s1
1.0	0.5	Cc1cc2ncn(S(=O)(=O)c3ccc(S(=O)(=O)NCC4CCCO4)cc3)c2cc1C (stereo not drawn)
-7.0	·	O=C(O)c1cccc(S(=O)(=O)N2c3cccc4cccc(c34)S2(=O)=O)c1
13.0	1.0	CCC(NC(=O)Nc1cc(C)cc(C)c1)c1c(-n2cccc2)sc2c1CCN(CC)C2 (stereo not drawn)
21.0	1.5	NC(N)=NC(N)=Nc1ccc2ccccc2c1

(more compounds)
Sa helicase inh	MgrA-DNA mod	Compound
15.0	·	O=C(OCc1cc(=O)n2ccsc2n1)c1cc(-c2cccs2)nn1-c1ccccc1
13.0	·	CC1(C)CC(=O)C=C(N2CCN(c3ccccc3F)CC2)C1
13.0	0.7	CCc1ccc(OCCCC(N)=O)cc1
-11.0	·	O=CN1CCN(C(=S)Nc2ccc(Cl)cc2Cl)CC1
40.0	·	COc1cccc(-c2cc(C(F)(F)F)nc(N3CCCCC3)n2)c1
5.0	-0.2	CC1=CCC2CC1C(c1ccc(N(C)C)cc1)OC2(C)C (stereo not drawn)
-16.0	·	CC(C)CCNC(=O)C1(C)CCC(=O)N1Cc1cccs1 (stereo not drawn)
2.0	·	Cc1cc(NC(=O)c2ccc(C(=O)c3ccccc3)cc2)no1
5.0	0.6	Cn1c(=O)c(C(=O)NCCN2CCNCC2)c(O)c2ccccc21
6.0	·	O=C(CCc1ccccc1)OCCN1CCCC1=O

More structures follow:
Sa helicase inh	MgrA-DNA mod	Compound
7.0	·	O=C(c1cccs1)N(Cc1ccccc1)c1ccccn1
0.0	-0.2	Cc1ccc(-n2cnc3scc(-c4cccs4)c3c2=O)cc1
23.0	·	CCCCN1C(=O)NC2NC(=O)NC21 (stereo not drawn)
13.0	·	O=C(OCC(=O)N1CCCC1)c1ccc2ncsc2c1
-4.0	·	CC1(C)CC(O)(CNCc2ccc3c(c2)OCO3)CCO1 (stereo not drawn)
2.0	·	O=C(CC1Sc2ccccc2NC1=O)Nc1cccc(-c2nnc3n2CCCCC3)c1 (stereo not drawn)

Compound activity from PubChem BioAssay.

Only part of the results is shown; the hit share may differ from the screen's.
